B2AR ag: beta2AR agonists driving receptor internalization, primary screen, cell-based, FAP fluorogen, flow cytometry. Am2.2-beta2AR cells; reference of the scale not given here. response, % (no concentration beside the values). 0.43% of 340,000 active;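 active = response above a set limit, near 3 SD of response in nonfluorescent compounds, cut at about 42% in these data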;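 also: stock transfer was 100 nL into about 11 µL; a reference agonist was the positive control; negative values mostly stem from fluorescent compounds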
Target sequence (P07550 whole entry, looked up): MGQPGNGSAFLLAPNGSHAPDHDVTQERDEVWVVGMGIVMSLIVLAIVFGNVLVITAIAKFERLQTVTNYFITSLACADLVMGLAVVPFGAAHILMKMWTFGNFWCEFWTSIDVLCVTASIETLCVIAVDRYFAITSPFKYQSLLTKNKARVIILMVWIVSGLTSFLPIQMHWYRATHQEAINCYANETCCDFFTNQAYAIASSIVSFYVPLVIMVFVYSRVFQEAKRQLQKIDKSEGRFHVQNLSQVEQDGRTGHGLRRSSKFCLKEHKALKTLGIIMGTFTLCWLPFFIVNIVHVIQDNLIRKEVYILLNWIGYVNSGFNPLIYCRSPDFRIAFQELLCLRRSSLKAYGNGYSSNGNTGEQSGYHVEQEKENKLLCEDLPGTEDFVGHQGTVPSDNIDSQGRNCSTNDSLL
Calb FLC: C. albicans growth inhibition with fluconazole, primary screen, CaCi-2 strain, Alamar Blue fluorescence | C. albicans CaCi-2 (fluconazole-resistant clinical isolate) + fluconazole, 48 h | growth inhibition, % (concentration not given with the values) | 0.57% of 300,000 active | AID 1979, 2009;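 active = most replicates above 75%; inconclusive = exactly half above 75%; inactive = most below 75%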;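 also: all wells also contain fluconazole at 8 µg/ml as a sub-toxic cotreatment; 0% = median of DMSO wells and 100% = median of geldanamycin control wells; wells of about 8 µL received 7.5 nL stock; the first replicate is given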
Beta apoptosis: inhibitors of cytokine-induced beta cell apoptosis, primary screen, luminescence; INS-1E cytokine-induced death, ATP luminescence, 48 h; percent of positive-control rescue, neutral wells zero; protection from apoptosis, % (concentration not given with the values); 0.8% of 300,000 active;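 active = all replicates at 75% or more, or half of them and the mean; inconclusive = half reach 75% but not the mean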;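 also: 0% = cytokine-treated negative control wells and 100% = positive control rescue; higher means more ATP so stronger rescue from cytokine killing; wells of about 40 µL received 100 nL stock; the first replicate is given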
ALR H2O2 inh: inhibitors of human ALR sulfhydryl oxidase, primary screen, biochemical, H2O2 detection, HRP-luminol luminescence, single point. inhibition, % (concentration not given with the values). purified ALR, DTT oxidation. 3.8% of 290,000 active. FAD-linked sulfhydryl oxidase ALR (Homo sapiens), P55789;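 active = mean and each replicate at 75% or more; inconclusive = only one of the two met; inactive = neither met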;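 also: stock transfer was 7.5 nL into about 7.5 µL; 0% = neutral wells and 100% = wells with inactivated enzyme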
Target sequence (P55789 whole entry, looked up): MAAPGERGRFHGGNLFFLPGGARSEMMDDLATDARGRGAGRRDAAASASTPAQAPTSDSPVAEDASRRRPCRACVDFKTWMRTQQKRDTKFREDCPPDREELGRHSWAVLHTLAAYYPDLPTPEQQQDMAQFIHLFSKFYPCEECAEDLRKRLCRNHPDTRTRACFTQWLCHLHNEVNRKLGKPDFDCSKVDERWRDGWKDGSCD
LANA-H2B inh: blockers of LANA interaction with H2A/H2B – biochemical, FP readout, HTS, primary screen | Protein LANA1 (Human herpesvirus 8 type P (isolate GK18)), Q9QR71 | cell-free LANA-H2A/H2B peptide, fluorescence polarization | inhibition, % (no concentration beside the values) | 0.6% of 320,000 active | AID 2629, 2010; in the data active = inhibition mostly above about 10%, no sharp cut-off; inactive = mostly below about 6.7%;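 also: stock transfer was 7.5 nL into about 10 µL; 0% = median of vehicle wells and 100% = median of positive control wells; one replicate is shown; the record names a cut of 25% in any replicate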
T cruzi repl: inhibitors of intracellular T. cruzi growth, primary screen, luminescence, NIH3T3 host cells; AID 1885, 2009; 1.4% of 300,000 active; T. cruzi beta-gal in NIH3T3, 90 h; inhibition, % (concentration not given with the values);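 active = mean inhibition across valid replicates above about 55%, limit read from the data; inconclusive = mean below that limit but half or more replicates reach it; inactive = mean below it, under half of replicates reach it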;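 also: signal also drops with host cell toxicity which is not excluded here; 0% = plate median of DMSO wells and 100% = zero luminescence signal; higher percent means less beta-gal luminescence so fewer parasites; stock transfer was 50 nL into about 50 µL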
Ecoli rRNA inh: reduced GFP signal of wild-type E. coli, primary screen, bacterial rRNA inhibitor project, GFP/RFP fluorescence, OD600, single point; 1.6% of 350,000 active; AID 720706, 2013; GFP signal change (wild-type ribosome), % (no concentration beside the values); E. coli WT GFP vs humanized-ribosome RFP mutants, 24 h; active compounds read low; DMSO median 0, no signal -100;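 active = significant combined selectivity score with lowered wild-type GFP, culture density cut under 30%, mutant RFP and density less affected; inactive = any of these conditions unmet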; also: one replicate is shown; some compounds called inactive have numbers as strong as hits
Bfl-1 A1 inh: caspase 3/7 activation in MEF A1-2A-BIM cells, primary screen, A1 inhibitor project, cell-based, luminescence, HTS | Caspase-Glo 3/7 luminescence, 3 h; percent of clofoctol response, vehicle zero | caspase activation, % (concentration not given with the values) | 0.066% of 330,000 active;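 active = over half of replicate activation scores above 10%, or exactly half above 10 with the replicate mean above 10; inconclusive = replicate mean below 10 yet half the replicates above 10; inactive = over half of replicates below 10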;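 also: wells of about 30 µL received 50 nL stock; many hits fall short of the cut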
Ecoli rRNA inh OD600: second read-out of Ecoli rRNA inh, no call of its own (marks repeat the call); OD600 change, %; measured here: OD600 growth;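 optical density of the mix in the first replicate; 0 = DMSO median and -100 = no signal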
Ecoli rRNA inh RFP: second read-out of Ecoli rRNA inh, no call of its own (marks repeat the call); RFP signal change, %; measured here: RFP humanized mutant strains;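 first replicate; 0 = DMSO median and -100 = no signal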
Numbers without * were called inactive; ? = inconclusive; . = no result given. Only part of the results is shown; count on the stated rates, not on these rows.

SMILES	B2AR ag	Calb FLC	Beta apoptosis	ALR H2O2 inh	LANA-H2B inh	T cruzi repl	Ecoli rRNA inh	Ecoli rRNA inh OD600	Ecoli rRNA inh RFP	Bfl-1 A1 inh
O=C(c1cccn(Cc2ccc(C(F)(F)F)cc2)c1=O)N1CCOCC1	3	-1	-6	-4	-4.5	-17	8	7	2.6	0.5
COc1ccc2[nH]c(=O)c(CN(C)C(=O)C3CCCCC3)cc2c1	-2	-1	2	-8	-0.7	0	.	.	.	0.1
O=C(Oc1nsnc1N1CCOCC1)N1CCOCC1	5	1	-7	-20	-1.4	14	7	13	-1.6	-0.3
O=C(c1ccc(F)cc1)N1CCN(c2cc(=O)[nH]nc2-c2ccccc2)CC1	-7	11	3	-1	-6.0	-1	.	.	.	1.5
CC(=O)c1cc(CN2CCN(CC=C(C)C)C(CCO)C2)cs1 (centres undefined)	0	-7	1	-21	-1.5	11	17	9	-0.2	0.5
CN(C(=O)c1cccc(NC(=O)Cc2cccc([N+](=O)[O-])c2)c1)C1CC1	6	.	-5	-6	-0.1	.	-3	3	2.5	3.2
CCc1ccc(OC(=O)c2cncc(Br)c2)cc1	-3	0	4	.	1.7	-10	-7	-21	-3.8	-0.4
CCCc1nc2ccccc2c(NC(=O)CN(CC)CC)c1CC	4	-1	-2	-4	-4.1	-5	14	12	1.6	0.0
CC(C)N1C(=O)S/C(=C/c2ccc(Sc3nc4ccccc4[nH]3)o2)C1=O	-18	-7	42	-5	2.5	-19	-10	-2	32	-0.6
COC(=O)c1ccc(C(=O)OC)c(NC(=O)CS(=O)(=O)Cc2ccccc2)c1	-1	-3	-1	21	-0.5	-10	.	.	.	0.4
COc1cccc(-n2c(SCC(=O)Nc3sc4c(c3C(N)=O)CCC4)nc3ccccc3c2=O)c1	-16	-11	-2	23	3.8	59*	.	.	.	0.2
C[C@@H](OC(=O)c1[nH]cnc1C(=O)NCc1ccc(CNC(=O)OC(C)(C)C)cc1)c1ccccc1	9	.	-1	0	3.3	.	-2	-16	2.5	-2.1
CC1(C)Cc2c(c(-c3ccccc3)[nH]c(=O)c2C#N)CO1	2	5	4	-14	-3.0	-12	.	.	.	-1.4
COc1ccccc1-c1noc(CCC(=O)NC2CCCCC2)n1	-4	14	.	30	0.5	8	2	-2	1.1	-0.5
O=C1c2ccccc2C(=O)N1Cc1ccc2c(c1)OCO2	-8	-3	.	.	-6.4	-1	.	.	.	-0.7
c1ccc(N2CCN(c3ncccn3)CC2)cc1	-2	2	.	98*	-6.3	-16	.	.	.	-3.8
CC(C)C[C@H](NC(=O)N1CCn2c1nc1ccccc12)C(=O)NCC1CCCO1 (some centres undefined)	-2	4	-8	-3	3.5	-13	-1	10	-5.4	-0.3
CC1CN(C(=O)C(Sc2ccccc2)c2ccccc2)CC(C)O1 (centres undefined)	1	4	-6	-9	-6.6	-1	.	.	.	0.8
COC(=O)c1[nH]nc(C(=O)OC(C)(C)C)c1-c1ccccc1	2	0	4	.	-4.5	3	.	.	.	-0.2
Clc1nc(NC2CCCC2)nc(N2CCOCC2)n1	4	-3	.	.	-2.8	1	4	5	-3.2	0.7
COc1cc(/C=N/Nc2ccc(F)cc2F)cc(OC)c1OC	-8	126*	5	69	-0.2	19	.	.	.	0.7
Cc1cc(C)c(C#N)c(SCc2ccccc2C)n1	-25	1	5	1	1.6	23	.	.	.	0.4
COc1cc(N)c(Cl)cc1C(=O)OCC(=O)Nc1cccnc1Cl	1	-1	-4	-9	-6.9	-2	-11	-12	-4.4	0.2
CCNc1c(N)c(=O)oc2ccccc12	-13	-7	-3	60	-4.2	-10	.	.	.	-0.2
COc1cccc(/C=N/Nc2ncccc2[N+](=O)[O-])c1OC	6	11	9	.	4.6	-4	12	12	-1.2	-6.7

The final two records of the part above come first, to join the parts.
SMILES	B2AR ag	Calb FLC	Beta apoptosis	ALR H2O2 inh	LANA-H2B inh	T cruzi repl	Ecoli rRNA inh	Ecoli rRNA inh OD600	Ecoli rRNA inh RFP	Bfl-1 A1 inh
CCNc1c(N)c(=O)oc2ccccc12	-13	-7	-3	60	-4.2	-10	.	.	.	-0.2
COc1cccc(/C=N/Nc2ncccc2[N+](=O)[O-])c1OC	6	11	9	.	4.6	-4	12	12	-1.2	-6.7
CSc1ccccc1NC(=S)NC1CCCC1	-5	-33	-2	56	0.4	-25	12	-3	-0.6	-0.4
CCOC(=O)CC1C(=O)NCCN1Cc1cccs1 (centres undefined)	4	2	-2	-4	3.9	-3	-4	2	-1.5	-0.1
COC(=O)C1CN(C(=O)COc2cccc(C)c2C)c2ccccc2O1 (centres undefined)	-1	-4	4	-5	-0.1	-3	-7	-13	-1.7	0.5
C/C(=N\NC(=O)C(C)n1nc(C)c([N+](=O)[O-])c1C)c1ccccc1O (centres undefined)	-4	-12	92*	-51	1.7	27	.	.	.	1.7
CCCCNc1c(-c2ccc(-c3ccc(C(C)=O)cc3)c(OC)c2)nc2cc(C)ccn12	13	.	42	-6	-5.1	.	-6	-6	2.1	0.2
C[C@H]1CC[C@H]2C(=O)N[C@H](Cc3ccccc3)C(=O)N2[C@@H]1c1ccccc1	.	.	-11	13	3.1	.	.	.	.	-1.1
OC/C(Br)=C(\Br)CO	3	.	-3	-7	12	.	4	3	0.5	-0.7
CCCCn1c(=O)[nH]c(=O)c2c1nc(-c1cc3c(cc1Br)OCO3)n2C	0	-8	3	-7	0.0	-1	12	14	2.7	-0.8
CCOC(=O)c1cccc(NC(=O)/C=C/c2ccc([N+](=O)[O-])cc2)c1	1	2	-1	-1	-0.2	-2	-6	-6	-1.7	0.6
Cc1ccc(-c2nn(-c3ccc(F)cc3)cc2C(=O)NCC2CCCO2)cc1 (centres undefined)	-21	16	-6	5	-3.5	18	-11	-5	2.1	0.1
C=CC[C@@H](CC(=O)N(CCO)Cc1ccccc1)C(=O)NC[C@@H](OC(=O)[C@@H](CC=C)Cc1ccc(F)cc1)c1ccccc1	19	.	7	2	-0.2	.	-5	-12	-13	0.6
CS(=O)(=O)Nc1ccc(Br)cc1C(=O)c1ccccc1	0	8	-8	.	1.2	-2	.	.	.	0.7
O=C(NCCN1CCOCC1)C(=O)NCC1OCCN1S(=O)(=O)c1cc(F)ccc1F (centres undefined)	-5	1	0	-10	2.4	-4	11	7	1.4	0.6
CC(=O)c1cccc(NC(=O)c2ccc(C(=O)Nc3cccc(C(C)=O)c3)nc2)c1	0	7	-11	5	-0.2	-12	7	5	39	-0.3
FC(F)(F)c1cccc(OCc2noc(-c3ccsc3)n2)c1	8	4	-6	-6	0.4	4	-5	-2	-1.0	0.3
COc1ccccc1NC(=O)c1cc(-c2ccc(C)o2)nc2ccccc12	6	-9	8	.	-1.9	5	7	11	-1.1	-0.4
CCC(C)(C)NC(=O)C(C(C)C)N(CC1CCCO1)C(=O)CNS(=O)(=O)c1ccc(F)cc1 (centres undefined)	-2	2	2	-3	1.2	-2	0	12	-1.3	0.5
CC(=O)Nc1ccc(S(=O)(=O)NCc2ccc(C)cc2)cc1	-1	-6	-11	0	0.4	-19	.	.	.	-1.6
CCOC(=O)N1CCC(N(CCN(C)C)C(=S)Nc2ccccc2C)CC1	0	-2	-5	-5	-1.2	-20	12	6	-9.3	-0.5
CC(=O)c1ccc(NC(=S)Nc2cccc3ccccc23)cc1	-4	10	25	-34	9.1	1	-5	-1	5.3	0.0
CNS(=O)(=O)c1cnccc1N1CCN(c2cccc(C(F)(F)F)c2)CC1	4	-14	2	-10	-1.7	33	.	.	.	0.6
COCCNCC(=O)N1CCCCCC1	3	-11	1	.	-2.9	-10	7	3	-4.6	0.2
CCN(CC)S(=O)(=O)c1ccc(NC(=O)c2cccs2)cc1	-1	8	3	-11	-0.2	12	-24	-22	7.7	-0.5
Cc1ccc(S(=O)(=O)NC(CC(C)C)C(=O)N2CCOCCOCCOCC2)cc1 (centres undefined)	20	3	-6	2	1.8	7	2	-2	0.1	-0.4
O=C(Nc1ccc(F)cc1)N1CCOCC1	3	-5	2	-3	1.3	-2	.	.	.	-0.2

Entries above marked active in ALR H2O2 inh.
Compound | B2AR ag | ALR H2O2 inh | LANA-H2B inh | Ecoli rRNA inh | Ecoli rRNA inh OD600 | Ecoli rRNA inh RFP | Bfl-1 A1 inh
c1ccc(N2CCN(c3ncccn3)CC2)cc1 | -2 | 98* | -6.3 | . | . | . | -3.8

Shown comma-delimited: three of the compounds above
SMILES,B2AR ag,Calb FLC,Beta apoptosis,ALR H2O2 inh,LANA-H2B inh,T cruzi repl,Ecoli rRNA inh,Ecoli rRNA inh OD600,Ecoli rRNA inh RFP,Bfl-1 A1 inh
CC(=O)c1cccc(NC(=O)c2ccc(C(=O)Nc3cccc(C(C)=O)c3)nc2)c1,0,7,-11,5,-0.2,-12,7,5,39,-0.3
FC(F)(F)c1cccc(OCc2noc(-c3ccsc3)n2)c1,8,4,-6,-6,0.4,4,-5,-2,-1.0,0.3
COc1ccccc1NC(=O)c1cc(-c2ccc(C)o2)nc2ccccc12,6,-9,8,.,-1.9,5,7,11,-1.1,-0.4

(continued)
SMILES	B2AR ag	Calb FLC	Beta apoptosis	ALR H2O2 inh	LANA-H2B inh	T cruzi repl	Ecoli rRNA inh	Ecoli rRNA inh OD600	Ecoli rRNA inh RFP	Bfl-1 A1 inh
COc1ccc(OC)c(-n2c(-c3ccc(O)cc3O)n[nH]c2=S)c1	5	0	-3	?	1.3	-5	-2	-4	-9.9	-0.1
O=C(CNC(=O)c1cccc([N+](=O)[O-])c1)NC1CCCc2ccccc21 (centres undefined)	-7	.	-10	.	-1.1	.	-7	-4	-1.2	-0.6
CCOc1ccccc1C(=O)NCC(=O)Nc1ccc2c(c1)OCO2	4	.	-7	.	2.5	.	6	14	3.4	2.0
COc1ccccc1N1CCN(C(=O)c2ccccc2Oc2ccccc2)CC1	3	2	-3	41	6.1	9	.	.	.	0.1
CCOc1ccc(S(=O)(=O)N2CCN(C(=O)C3CC3C)CC2)cc1 (centres undefined)	3	.	-3	-1	-1.0	.	2	5	-0.3	1.5
CC(C)OC(=O)c1sc2nc(-c3ccccc3)ccc2c1N	-6	13	4	-2	1.8	19	-26*	-9.8*	-2.4*	-6.4
Cc1cc(OC(C)C(=O)NCc2ccncc2)c2c(C)c(C)c(=O)oc2c1 (centres undefined)	-1	.	-6	1	-4.4	4	6	14	0.4	1.0
